Vaccinia mCherry: qHTS for Stage-Specific Inhibitors of Vaccinia Orthopoxvirus: mCherry Reporter Primary qHTS. AID 720579, 2013. 310,000 compounds, 0.63% hits. Vaccinia virus mCherry reporter infection, fluorescence; about a quarter of the inactives have no number. Potency, µM (doses to about 36.5 µM), inactives show top-dose activity change, negative = inhibition, hits mostly inhibitors; active = well fitted inhibition curve with a large enough effect; inconclusive = small, poorly fitted or top-dose-only effect; inactive = no such curve, though single readings can be large or run the other way; tested in A549 cells; further: nearly all actives have a fitted effect of over 35% in size; inactives centre near -10
Vaccinia Venus: qHTS for Stage-Specific Inhibitors of Vaccinia Orthopoxvirus: Venus Reporter Primary qHTS | AID 720580, 2013 | Potency, µM (series often up to 36.5 µM), for inactives: top-dose activity change, negative = inhibition, most hits filed as inhibitors | Vaccinia virus Venus reporter expression, fluorescence | 330,000 compounds, 0.46% hits; active means well fitted inhibition curve with a large enough effect; inconclusive means small, poorly fitted or top-dose-only effect; inactive means no such curve, though single readings can be large or run the other way; tested in A549 cells; further: nearly all actives have a fitted effect of over 30% in size; inactives centre near -10
Starred values were filed as active, the others as inactive; i = inactive; ? = inconclusive; . = no result given; & = joins results of further samples; [ ] = dose if it differs, or a comment. On the % scale 0 is the no-effect control and ±100 the full control effect; potency means the concentration at half of the fitted maximal effect.

Start of the listing, in advance (three entries):
SMILES | Vaccinia mCherry | Vaccinia Venus
Cc1c(C(=O)N2CCc3ccccc32)oc2ccccc12 | i | -1%
CCC(C)N1C(=O)/C(=C\c2cc3c4c(c2)CCCN4CCC3)C(=O)NC1=S (stereo not drawn) | 4% | 8%
COCCCNc1ccn2nc(-c3ccc(OCc4ccccc4)cc3)cc2n1 | ? | -23%

All compounds of this part, repeating the preview:
SMILES | Vaccinia mCherry | Vaccinia Venus
Cc1c(C(=O)N2CCc3ccccc32)oc2ccccc12 | i | -1%
CCC(C)N1C(=O)/C(=C\c2cc3c4c(c2)CCCN4CCC3)C(=O)NC1=S (stereo not drawn) | 4% | 8%
COCCCNc1ccn2nc(-c3ccc(OCc4ccccc4)cc3)cc2n1 | ? | -23%
CCc1ccc(C(C)NC(=S)NCc2ccc(F)cc2)cc1 (stereo not drawn) | ? | -17%
O=c1cc(-c2ccc(F)cc2)nc(SCc2nc(-c3cccc(C(F)(F)F)c3)no2)[nH]1 | -12% | -5%
CCCCC(C)n1[nH]c(=O)c2c(C)cc(C)nc21 (stereo not drawn) | -22% | -24%
Cc1ccc(-c2nc3ccsc3c(=O)o2)cc1 | -2% | -18%
Cc1cc(-c2ccc3c(c2)COc2c4ccccc4nn2-3)on1 | i | -27%
CCOC(=O)N1CCN(C(=O)c2ccccc2-c2ccccc2)CC1 | ? | ?
O=C(N/N=C1/CCc2ccccc21)C1CC1 | i | -6%
Cc1ccc2c(CC(=O)Nc3ccc(S(=O)(=O)N4CCCCC4C)cc3)coc2c1 (stereo not drawn) | -18% | -11%
O=C(CSCc1ccccc1Cl)N1CCN(c2ccccn2)CC1 | -19% | -18%
CCOC(=O)C(C)Oc1cccc2c(=O)n(CC(=O)Nc3ccc4c(c3)OCCO4)ccc12 (stereo not drawn) | -1% | -2%
CCOC(=O)CC1(c2ccccc2)CCOC(C)(C)C1 (stereo not drawn) | -10% | -4%
COCCNC(=O)c1cc(S(=O)(=O)N2CCOCC2)ccc1SCc1cccc(OC)c1OC | 0% | -6%
CCN1CCC2(CC1)N=C(c1ccc(F)cc1)C(=S)N2 | i | -11%
CC(C)[C@@H](CO)N(C)S(=O)(=O)c1ccccc1Br | i | -6%
CC(=NNc1ccc([N+](=O)[O-])cn1)c1ccccc1 | i | -6%
CCN(CC)c1ccc(NC(=O)c2ccc(Cl)nc2)cc1 | ? | ?
NS(=O)(=O)c1ccc(NC(=O)c2cccc3cc4ccccc4nc23)cc1 | ? | -24%
CSCCC(NC(=O)c1cccc(C)c1)C(=O)Nc1sccc1C(N)=O (stereo not drawn) | i | 5%
CCOC(=O)Cn1nc(C)n(-c2ccc(F)cc2)c1=O | 1% | -1%
CO[C@H]1CN(C)C(=O)c2cc(NC(=O)C3CCOCC3)ccc2OC[C@H](C)N(Cc2nccs2)C[C@H]1C | -13% | -8%
O=C(CN1C(=O)c2ccccc2C1=O)Nc1ccccc1C(=O)NC1CCCCCC1 | -3%[1.46 µM] | -8%
Cc1cccc(C(=O)NCC(c2ccc(F)cc2)N2CCOCC2)c1 (stereo not drawn) | -13% | -3%
Cc1ccc(/C=N/NC(=O)C2COc3ccccc3O2)s1 (stereo not drawn) | ? | ?
Cc1ccc(OCC(=O)N2CCOCC2)cc1C | -4% | -10%
COc1cc(OC)c(OC)cc1/C=C1\CCC/C(=C\c2cc(OC)c(OC)cc2OC)C1=O | -28% | -9%
CC1=C(c2ccc(C)c(C)c2)S(=O)(=O)N(Cc2ccc(C(=O)NCc3ccc(C)cc3)cc2)C1=O | -7% | -15%
CCc1ccc2[nH]c(C(=O)Nc3ccc(F)cc3Br)cc2c1 | -12% | -9%
O=C1c2cccc3cccc(c23)N1Cc1cccc(F)c1 | -22% | 5%
COc1ccc(C2c3[nH]c4ccccc4c3CCN2CCCn2cccn2)c(F)c1 (stereo not drawn) | i | -15%
Cc1noc(-c2ccccc2)c1NC(=O)Nc1ccccc1 | i[7.34 µM] | -3%[7.34 µM]
CCc1ccc(-c2ccc3nnc(SCC(=O)NCC4CCCO4)n3n2)cc1 (stereo not drawn) | -24% | ?
COc1ccc(-n2nc3c(N4CCC(C(=O)NC5CCCCC5)CC4)nnc(C)c3c2C)cc1 | -13% | -6%
COc1ccc(C(CNC(=O)Cc2ccccc2)N2CCCCC2)cc1 (stereo not drawn) | i | -8%
O=C(NCc1ncc(C(F)(F)F)cc1Cl)Nc1ccccc1 | -20% | -21%
CN(c1cnn(-c2ccccc2)c(=O)c1Cl)n1cccc1 | 6% | -5%
Cc1cc(N/N=C/c2cccc(Cl)c2)nc(NCc2ccccc2)n1 | ? | ?
CCOC(=O)Cn1c(=O)c2c(nc(Br)n2Cc2ccccc2Cl)n(C)c1=O | -11% | -5%
Cc1cc2cc(CNC(=O)c3cccs3)ccc2[nH]1 | i | 19%
CC1(C)CC(=O)C2=C(C1)OC1OC(=O)CC21C (stereo not drawn) | -1% | -7%
CC1CCCCN1C(=O)COC(=O)c1cccc(NS(=O)(=O)c2ccccc2)c1 (stereo not drawn) | ? | -7%
O=C(Nc1nnc(C2CC2)s1)c1n[nH]c(=O)c2ccccc12 | -15% | -1%
C=C1C(=O)[C@@]23[C@H](O)C[C@@H]4C(C)(C)CC[C@H](O)[C@]4(C)[C@@H]2C[C@H](O)[C@@H]1[C@H]3O | ? | 4.5µM*
Cc1nc(-c2ccc(F)cc2)sc1CCNC(=O)Cc1ccc(F)cc1 | -8% | -10%
O=C(CSc1nnc(-c2ccco2)n1Cc1ccccc1)NC(=O)NCc1ccco1 | -21% | -8%
CC(=O)N1CC2(CC(c3ccc(Cl)cc3Cl)=NO2)CN1c1cccc(Cl)c1 (stereo not drawn) | -4% | -19%
COc1cccc(-c2cc(C(=O)O)no2)c1 | -11% | 7%
COc1ccc(CCNC(=O)c2ccc3c(c2)N(Cc2ccc(F)cc2)C(=O)CS3)cc1OC | -12% | -12%
COC(=O)C1C2C=CC3(CN(c4ccc(Cl)c(F)c4)C(=O)C13)O2 (stereo not drawn) | -1% | 6%
N#Cc1c(-c2ccccc2)cc(C2CC2)nc1SCC(=O)c1cccs1 | -13% | -3%
CC(SCc1ccccc1)C(=O)NCc1ccccn1 (stereo not drawn) | 2% | -2%
COc1ccc(OC)c(N(/C(N)=N/c2nc(C)cc(C)n2)S(=O)(=O)c2ccc(NC(C)=O)cc2)c1 | -5% | -11%
CCN(CC(=O)NCc1cccs1)C(=O)c1ccc(S(=O)(=O)N(C)c2ccccc2)cc1 | -23% | -9%
COc1cccc(C=NCC(C)N=Cc2cccc(OC)c2O)c1O (stereo not drawn) | i | -10%
c1cncc(CNCCN2CCNCC2)c1 | -13% | -13%
Cc1c(C(=O)Nc2c(F)cc(F)cc2Br)sc2ncn(CC(=O)N3CCCC3)c(=O)c12 | -1% | -20%
Cc1cc(C(=O)C[N+]23CCN(CC2)CC3)c(C)n1-c1ccc(Br)cc1 | 0% | 0%
CCCc1nc(SCC(=O)Nc2ccccc2OC)c2c(=O)n(C)c(=O)n(C)c2n1 | 8% | -14%

3 structures already listed, sorted by number of heavy atoms, descending:
SMILES | Vaccinia mCherry | Vaccinia Venus
O=C(CSc1nnc(-c2ccco2)n1Cc1ccccc1)NC(=O)NCc1ccco1 | -21% | -8%
CCCc1nc(SCC(=O)Nc2ccccc2OC)c2c(=O)n(C)c(=O)n(C)c2n1 | 8% | -14%
CC(=O)N1CC2(CC(c3ccc(Cl)cc3Cl)=NO2)CN1c1cccc(Cl)c1 (stereo not drawn) | -4% | -19%

(list continues)
SMILES | Vaccinia mCherry | Vaccinia Venus
O=C(O)[C@@H]1[C@@H]2C[C@@H]2CN1c1ncccc1[N+](=O)[O-] | -3% | 8%
NC(=O)c1c(NC(=O)c2ccncc2)sc2c1CCCCCC2 | ? | -20%
OCC1(CCc2ccccc2)CCN(Cc2ccc(OC(F)F)cc2)CC1 | i | -16%
O=C(c1ccc(-n2cccn2)cc1)N1CCN(c2ncccc2C(F)(F)F)CC1 | ? | -29%
O=c1[nH]c2ccccc2c(O)c1-c1ccccc1[N+](=O)[O-] | 3% | -7%
O=C(CSc1nnnn1-c1ccc2c(c1)OCCO2)OC1CCCCC1 | -14% | -6%
CCc1cc(C(=O)N(CC)CC(=O)Nc2ccc(OC)cc2)sc1C | -11% | -11%
COc1ccc(Oc2nc3c(C)cccn3c(=O)c2/C=C(\C#N)C(N)=O)cc1 | i[7.34 µM] | -7%[7.34 µM]
COc1cccc(C(=O)Nc2ccc(N3CCN(C(=O)c4cccs4)CC3)cc2)c1 | ? | ?
O=[N+]([O-])c1ccc(Cl)c(/C=N/n2c(-c3ccncc3)n[nH]c2=S)c1 | i[7.34 µM] | -5%[7.34 µM]
CCOC(=O)c1[nH]c2c(c1Cc1ccccc1)C(=O)CC(c1ccc(Cl)cc1)C2 (stereo not drawn) | -11% | -13%
Cn1c(NC(=O)c2ccc(F)cc2)c(-c2cccs2)c(=O)c2ccccc21 | -5% | -4%
CC1CCN(S(=O)(=O)c2ccccc2)CC1 | -16% | 5%
OCCN(Cc1ccccc1)Cc1ccccc1F | -13% | -4%
COc1ccc(-c2nn(-c3ccccc3)cc2CNC[C@H]2O[C@@H](n3cnc4c(N)ncnc43)[C@H](O)[C@@H]2O)cc1 | -13% | -4%

Full records as entered above. Values in the order: Vaccinia mCherry | Vaccinia Venus
CC1CCN(S(=O)(=O)c2ccccc2)CC1 in the list: -16% | 5%
OCC1(CCc2ccccc2)CCN(Cc2ccc(OC(F)F)cc2)CC1 in the list: i | -16%

Other compounds.
SMILES | Vaccinia mCherry | Vaccinia Venus
Cc1nn(-c2ccc(F)cc2)c(-n2cccc2)c1C(=O)N1CCN(c2ccccc2F)CC1 | -11% | -9%
C(=N\NC1=Nc2cccc3cccc1c23)/c1ccccc1 | -17% | 15%
O=C(O)c1cn(-c2ccccc2)nc1-c1ccncc1 | -14% | -6%
COc1ccc(N(CC(=O)Nc2cccc(C(C)=O)c2)S(=O)(=O)c2ccccc2)c(OC)c1 | ? | -23%
COc1ccc(CC(=O)N(CCC2=CCCCC2)c2c(N)n(Cc3ccccc3)c(=O)[nH]c2=O)cc1 | -16% | -27%
[S-]C(=Nc1ccc(Cl)cc1)N[n+]1ccccc1 | -8% | 0%
CC1CN(C(=O)CCNS(=O)(=O)c2ccc(Br)cc2)CC(C)O1 (stereo not drawn) | -1% | -13%
O=C(N=C1c2ccccc2CN1c1ccc(F)cc1)c1ccc(Cl)nc1 | i | -1%
CCOC(=O)c1cc(NC(=O)C2C3C=CC(O3)C2C(=O)O)cc(C(=O)OCC)c1 (stereo not drawn) | -10% | -15%
O=C(NCc1ccc(F)cc1)C1CCN(S(=O)(=O)c2ccc(Br)s2)CC1 | -15% | -14%
COc1ccccc1N(CC(=O)NCCSc1ccccc1)S(=O)(=O)c1ccc(C)cc1 | -30% | -15%
CC(C)Oc1cccc(C(=O)C2CCCN(C(=O)CCc3cnn(C)c3)C2)c1 (stereo not drawn) | -6% | -17%
O=C(CCCSc1ccccc1)Nc1nc(-c2ccco2)c(-c2ccco2)s1 | i | -8%
Cc1ccccc1S(=O)(=O)/N=C(/Nc1c(C)n(C)n(-c2ccccc2)c1=O)c1ccccc1 | i | 0%
CC(C)C[C@H](NC(=O)c1nc[nH]c1C(=O)N1CCc2ccccc2C1)C(=O)OCc1ccccc1 | i | -14%
COc1cccc(N2CC(NS(=O)(=O)c3ccc4ccccc4c3)CC2=O)c1 (stereo not drawn) | -11% | -2%
CCCCC/C=N/NC(=O)c1[nH]c2ccc([N+](=O)[O-])cc2c1C | -18% | -6%
CCCCCNC(=O)Cc1ccc(OC)cc1 | -17% | -18%
COc1ccc(OC(F)(F)F)cc1CC1(C)C(=O)Nc2ccc(-c3ccsc3)cc21 (stereo not drawn) | -12% | -8%
COC(=O)C[C@H]1CC[C@@H](NC(=O)Nc2cccc(OC)c2)[C@@H](CO)O1 | -13% | -6%
Cc1ccc(-c2cc(C(=O)NCc3cnn(C)c3C)c3cc(Br)ccc3n2)cc1 | -24%&-16% | -15%&-10%
COCCOC(=O)C1=C(C)NC2=C(C(=O)CC(C)(C)C2)C1c1ccc2c(c1)OCO2 (stereo not drawn) | 0% | -6%
CCOC(=O)CSc1nc2c(c(=O)n(C)c(=O)n2C)n1CCCc1ccccc1 | . | -8%
Cc1ccc2nc(Nc3ncc4c(n3)CC(C)(C)CC4=O)nc(C)c2c1 | i | 9%
CCOC(=O)c1cc2c(=O)[nH]ccc2nc1C | -24% | -13%
CC1(C)OC(=O)C(=C2CCCN2)C(=O)O1 | . | -11%
O=C(NCc1cccs1)C1CCN(S(=O)(=O)c2cccc3nsnc23)CC1 | -21% | -3%
COCCn1c(SCC(=O)c2ccc3c(c2)OCCO3)nnc1-c1ccoc1C | -11% | -5%
Cn1c(=O)c2c(ncn2CC(=O)Nc2ccc(Cl)cc2Cl)n(C)c1=O | -24% | -11%
Cc1ccc(CNC(=O)c2cc3ccc4cccnc4c3[nH]2)cc1 | -14% | -11%
O=S(=O)(c1cc(Br)ccc1Br)N1CCCCCC1 | -1% | -3%
CC(/C=C/c1ccccc1)=N/NC(=O)c1cccc(Br)c1 | ? | -28%

Already shown: entries from further up.
SMILES | Vaccinia mCherry | Vaccinia Venus
CCN1CCC2(CC1)N=C(c1ccc(F)cc1)C(=S)N2 | i | -11%
CC(C)[C@@H](CO)N(C)S(=O)(=O)c1ccccc1Br | i | -6%

Compound activity deposited in PubChem by National Center for Advancing Translational Sciences (NCATS).
